LT uptake inh – qHTS Assay for Anthrax Lethal Toxin Internalization | Cells, anthrax lethal toxin internalization, FRET ratio (460/530) | Potency, µM (highest dose often 40 µM), without a hit: at the highest dose activity change, negative = inhibition, hits mostly inhibitors | actives 0.67% (n = 70,000) | AID 912, 2007; active = well fitted falling ratio curve with the 530 nm signal flat; inconclusive = other ratio curves, or a change in one channel alone; inactive = flat curves in the ratio and both channels; the % refers to the ratio; note: % is set by controls: 0 for no effect and ±100 for the full control effect; nearly all actives have a fitted effect of over 50% in size; tested in ME-180 cells; beta-lactamase reporter
Prx2 Sm inh – Schistosoma Mansoni Peroxiredoxins (Prx2); Schistosoma mansoni peroxiredoxin 2 (Prx2); S. mansoni Prx2 activity coupled to TGR/GSH (TGR is thioredoxin glutathione reductase), NADPH fluorescence loss, qHTS; some inactives read as strong as hits; Potency, µM; actives 0.07% (n = 65,000); active means full or partial inhibition curve with a strong effect at the top dose; inconclusive means weaker partial or single-point curve; inactive means no accepted curve; note: series up to 57 µM; many of its hits are not listed in these tables
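Prx2 activity was followed as the loss of NADPH fluorescence (ex 365/em 450 nm), read every 30 sec for 8 min after H2O2 start. The enzyme mix (50 nM Prx2, 25 nM TGR, GSH, NADPH; pH 7.4 phosphate buffer) was incubated with compound for 15 min at room temperature first.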
Active calls of the source: *; ? = inconclusive; · = no result given; [ ] = dose if it differs, or a comment. Potency is the fitted concentration of half-maximal effect. A portion of the library (hit frequency here may not be typical).

The line under a structure holds: LT uptake inh | Prx2 Sm inh
- CCn1cc(C(=O)NCCCOC(C)C)c2cc(OC)c(OC)cc2c1=O
  0.5% | >57
- Cc1ccc2c(c1)c1nc3ccccc3nc1n2CCN1CCOCC1
  -1.9% | >57
- Cc1cnc(CNc2ccnc(-c3cccc(C#N)c3)n2)cn1
  ? | >57
- O=C(Cn1cnc2c(cnn2-c2ccc(Cl)cc2)c1=O)NCC1CCCO1 (stereo not given)
  -0.8% | ?
- CC(C)CN1CCC2(CC1)CCN(C(=O)c1ccncc1)CC2
  -14.3% | >57
- CC(C)n1c(SCC(N)=O)nc2c1c(=O)n(C)c(=O)n2C
  -4.8% | >57
- COc1ccc(N2CCN(C(=O)c3cccc(N4C(=O)C5CC=CC(C)C5C4=O)c3)CC2)cc1 (stereo not given)
  -5.3% | >57
- CCn1c(SCC(=O)Nc2ccc3c(c2)c2ccccc2n3CC)nnc1-c1ccco1
  ? | >57
- COC(=O)CNC(=O)[C@@]1(C)C=C[C@@H](Cc2ccccc2)N1C(=O)OC
  -3.0% | ·
- O=C(O)CNS(=O)(=O)c1ccc(F)cc1
  -5.9% | >57
- COc1cccc(C2CC(c3cccc(Br)c3)n3ncnc3N2)c1 (stereo not given)
  -19.3% | >57
- CC(C)=CC(=O)OCC(=O)Nc1ccccc1Cl
  3.6% | >57
- O=C(COc1ccc(N2CC(C(=O)O)CC2=O)cc1)Nc1cccc(C(F)(F)F)c1 (stereo not given)
  -2.4% | >57
- O=C(O)COc1ccc(S(=O)(=O)c2ccc(OCC(=O)O)cc2)cc1
  1.1% | ·
- Cn1c(Cn2c(=O)sc3ccccc32)nnc1SCC(=O)Nc1ccc(Cl)cc1
  7.8% | >57
- COc1ccc(-n2c(SCC(=O)N3CCCCC3C)nnc2-c2cccnc2)cc1 (stereo not given)
  -2.4% | >57
- Clc1ccc(C2CC(c3cccs3)n3ncnc3N2)c(Cl)c1 (stereo not given)
  -9.0% | >57
- Cc1cccc(NC(=O)c2c(O)c3cccc4c3n(c2=O)CCC4)n1
  14.3% | >57
- O=C1CCc2ccccc2O1
  0.0% | ·
- O=C(C1CC1)N1CCc2cc(S(=O)(=O)N3CCCc4ccccc43)ccc21
  -4.6% | >57
- O=C(C1CCN(c2nnc(-n3cccc3)s2)CC1)N1CCc2ccccc2C1
  -26.0% | >57
- O[C@@H]1C2CCCC1[C@]1(O)CCCCC1C2 (stereo not given in full)
  · | >57
- CCC(c1nnnn1C1CCCC1)N(Cc1cccs1)Cc1cc2cc(C)ccc2[nH]c1=O (stereo not given)
  -6.9% | >57
- Cn1cc(CNC(=O)COc2ccc(Cl)cc2Cl)cn1
  -1.5% | >57
- N#Cc1ccc(CSc2nnc(-c3cnccn3)o2)cc1
  5.3% | >57
- O=C(CSC1=NCCN1)c1ccccc1
  ? | >57
- COc1ccc(-c2[nH]ncc2-c2ccc(Cl)cc2)c(O)c1
  -25.8% | >57
- COCCn1c(=S)[nH]c2cc(C(=O)N3CCc4ccccc43)ccc2c1=O
  ? | >57
- C=C[C@@H]1CN2CC[C@@H]1C[C@H]2[C@H](O)c1ccnc2ccccc12
  -12.4% | >57
- c1ccc(N2CCN(CCc3nnc4n3CCCCC4)CC2)cc1
  -4.7% | >57
- CCOc1nc2ccccc2nc1NS(=O)(=O)c1ccccc1
  11.4% | >57
- C[N+](C)(C)c1ccc([C@H](N)C(=O)O)cc1
  7.1%[8 µM] | >57
- COC(=O)c1ccccc1NC(=O)CSc1nnnn1-c1ccc(C)cc1C
  -7.3% | >57
- COc1ccccc1-c1c(C)oc2cc(OC(=O)c3ccco3)ccc2c1=O
  ? | >57
- N#Cc1c(N)[nH]c(=S)c(C#N)c1-c1ccccc1
  ? | ·
- O=NN(CCO)CCO
  0.5% | ·
- COc1ccc(-n2c(=O)c(-c3cc(F)cc(F)c3)nc3cnc(N(C)C)nc32)cc1
  ? | >57
- CCOc1cc(C2C(C(=O)OC)=C(C)N=C3SC(C)C(=O)N32)ccc1OC(C)=O (stereo not given)
  -1.9% | >57
- O=C(C1CC(=O)N(c2ccccc2)C1)N1CCN(C2=NS(=O)(=O)c3ccccc32)CC1 (stereo not given)
  -10.0% | >57
- CCCc1cc2c(n1Cc1cccc(Cl)c1)C(C)C1CN(C(=O)c3ccccc3)C(C)(C(=O)OC)C21 (stereo not given)
  3.8% | >57
- Cc1c(-n2c(CN3C(=O)c4ccccc4C3=O)nc3ccccc3c2=O)c(=O)n(-c2ccccc2)n1C
  11.7% | ·
- CSc1nc(-c2ccccc2)nc(N2CCCC2)c1C(C)=O
  ? | >57
- CCOC(=O)C(Cc1ccccc1)NC(=O)CCc1c(C)nc2ncnn2c1C (stereo not given)
  -15.5% | >57
- N#Cc1ccccc1CSc1nc(O)cc(=O)[nH]1
  -6.8% | >57
- O=C(NC1CCCc2ccccc21)c1ccc(CNc2c(N3CCOCC3)c(=O)c2=O)cc1 (stereo not given)
  -0.1% | >57
- Cc1nn(Cc2ccccc2Cl)c(C)c1NC(=O)c1noc2c1CCCCC2
  -10.4% | >57
- COCCCN1C(=O)C(O)=C(C(=O)c2ccco2)C1c1ccccc1 (stereo not given)
  -2.5% | >57
- CC(=O)Nn1cc2c(=O)n(C)c(=O)n(C)c2c1
  1.1% | >57
- COC(=O)c1ccccc1NC(=O)N1CCCC1
  -11.0% | >57
- CN(C)c1ccc(N=Cc2nc(-c3ccccc3)oc2O)cc1
  -10.2% | >57
- Cc1ccc(CNC(=O)C2c3ccccc3C(=O)N3CCc4ccccc4C23)o1 (stereo not given)
  -12.3% | >57
- O=C(COc1ncnc2ccc(Br)cc12)Nc1ccc(N2CCOCC2)cc1
  -9.4% | >57
- CCOC(=O)c1oc2c(CN3CCCCC3C)c(O)ccc2c(=O)c1-c1ccc(OC)c(OC)c1 (stereo not given)
  -14.0% | >57
- COc1ccc(S(=O)(=O)N2CCN(c3ccc(C)cc3C)CC2)cc1OC
  ? | >57
- CCCCSc1nnc2nc(C)cc(C)n12
  -2.1% | >57
- C=C(C)c1nc(N)nc(N)n1
  17.1% | >57
- CCOC(=O)N1CCN(C(=O)c2ccc3c(c2)NC(=O)C(N2CCOCC2)S3)CC1 (stereo not given)
  -2.5% | >57
- Cc1cc(-c2ccccc2)nc(N2CCN(c3ccccn3)CC2)n1
  2.3% | >57
- CN1/C(=C\C(=O)C(F)F)C(C)(C)c2ccccc21
  1.7% | ·
- COc1ccccc1C(=O)Nc1cc(-c2nn3c(C)nnc3s2)ccc1C
  -0.2% | >57

The list goes on.
structure	LT uptake inh	Prx2 Sm inh
CCOC(=O)c1sc2nc3c(cc2c1N)COC(C)(C)C3	?	>57
CCOC(=O)c1sc(=S)n(-c2cc(F)ccc2F)c1N	?	>57
CCCC(c1cc(C(C)(C)C)c(O)cc1C)c1cc(C(C)(C)C)c(O)cc1C	?	>57
CCC(CC)C(=O)NCCc1cc2cc(C)c(C)cc2[nH]c1=O	0.0%	>57
O=C(Cn1c(SCC(=O)NC2CCCC2)nnc1-c1ccncc1)Nc1ccc2c(c1)OCO2	-7.1%	>57
Cc1cc(C(=O)NCc2ccccc2)c(=O)[nH]c1C	-8.0%	·
COC(=O)C1=C(C)N(CCC2=CCCCC2)C(=O)C1	-5.6%	>57
Nc1c2ccccc2nc2c(O)cccc12	1.5%[3.58 µM]	>57
CCOc1ccc(C2CC(=O)NC3=C2C(=O)CCC3)cc1Cl (stereo not given)	11.5%	>57
COc1ccc(N2CCN(S(=O)(=O)c3cccc(C(F)(F)F)c3)CC2)cc1	-6.1%	>57
COCCCNC(=O)CCCn1c(=O)[nH]c2ccccc2c1=O	-9.5%	>57
CCOC(=O)N(CC)c1ccc(C(O)(C(=O)OC)C(F)(F)F)cc1 (stereo not given)	-7.1%	>57
O=C(CN1CCN(c2nc(-c3ccccc3)cs2)CC1)NCc1ccc2c(c1)OCO2	-21.0%	>57
Cc1cc(C)cc(OCC(=O)NCc2nc(-c3ccccc3)no2)c1	-22.4%	>57
Cc1ccc2nc(NCc3ccco3)c(C=NCc3ccco3)c(=O)n2c1	-5.4%	·
Cc1cccc(C)c1NC(=O)[C@H](C)N	-1.4%[3.58 µM]	>25.6
CCOC(=O)c1cccc(-n2c(C)nc3ccccc3c2=O)c1	12.1%	>57
CCCC(=O)N1c2ccc(-c3csc(N)n3)cc2CC1C (stereo not given)	-2.2%	>57
O=C(CSc1nnc(-c2cccs2)n1Cc1ccco1)c1ccc2c(c1)OCO2	-3.8%	>57
CC1CC(C)CN(C(=O)COC(=O)CNS(=O)(=O)/C=C/c2ccccc2)C1 (stereo not given)	13.0%	>57
c1ccc(Cn2nnnc2C(c2ccccn2)N2CCOCC2)cc1 (stereo not given)	-5.2%	>57
CCN(CC)S(=O)(=O)c1ccc(S(=O)(=O)N(Cc2ccccn2)Cc2ccco2)cc1	-8.6%	>57
Cc1cc(Br)ccc1NC(=O)CNC(=O)CN(C)Cc1nc2ccccc2c(=O)[nH]1	-7.1%	>57
COC(=O)Nc1nc(C)c(C(=O)N(C)C)s1	4.0%	>57
CSc1ccccc1NC(=O)CN(Cc1ccc(Cl)cc1)S(C)(=O)=O	6.6%	>57
CCn1c(SCCN2CCCCC2)nnc1-c1ccc(S(=O)(=O)N2CCOCC2)cc1	16.4%	>57
CCOC(=O)CN1C(=O)SC(CC(=O)Nc2nccs2)C1=O (stereo not given)	15.8%	>57
Cc1nn(-c2cc(Cl)ccc2N)c(=O)c2ccccc12	-14.3%	·
COC(=O)c1cc(Br)c(=O)n(-c2ccc(OC)cc2)c1	-2.4%	>57
O=C(CSc1nnc(-c2ccc(Cl)s2)o1)N1CCOCC1	-2.6%	>57
CN(C)c1nc(Oc2ccc(C(=O)OCC(=O)Nc3ccccc3)cc2)nc(N(C)C)n1	-2.6%	·
CCOc1ccc(OCC)c(NC(=O)CN2CCN(c3cc(C)ccc3C)CC2)c1	?	>57
CCN(CC)C(=O)C1CCN(CC2CC=CCC2)CC1 (stereo not given)	-3.9%	>57
CC(C)NC(=O)CCS(=O)(=O)c1ccc(Br)s1	0.4%	>57
COc1nc(OC)nc(N2CCC(C(=O)Nc3cccc4c3CCCC4)CC2)n1	-10.4%	>57
O=C(c1csc2c1CCCC2)N1CCN(c2ncccn2)CC1	4.3%	>57
COc1ccc(-n2nnnc2SCC(=O)c2cccc(OC)c2)cc1	-3.7%	>57
CCOc1ccc(CCNC(=O)C2CC(=O)N(C3CCCC3)C2)cc1OCC (stereo not given)	-1.4%	>57
CCOc1ccc(C(=O)c2nc3c(n2O)CCCC3)cc1	5.8%	>57
C=CCn1c(=O)c(C#N)cc2c(=O)n3ccccc3nc21	?	>57
CCOC(=O)Cn1c(S(=O)(=O)Cc2ccccc2)nc2ccccc21	6.8%	>57
CCOC(=O)c1c(C)n(OCc2ccccc2)c2ccc3nonc3c12	?	·
COc1ccc(N2CCN(CCCNC(=O)C3CCCN(S(=O)(=O)c4cnc[nH]4)C3)CC2)cc1 (stereo not given)	?	>57
Cc1cc(Cl)c(S(=O)(=O)Nc2ccon2)cc1OCC(=O)NC1CCCCC1	-9.3%	>57
CCCS(=O)(=O)c1nc(S(=O)(=O)c2ccc(C)cc2)c(N2CCCC2)s1	12.8%	·
Cn1c(=O)c2c(-c3ccccc3)n(-n3cnnc3)cc2n(C)c1=O	?	>57
CC1(C(=O)NCc2cc(F)cc(C(F)(F)F)c2)C=CC2(CCCCC2)N1C(=O)c1ccccc1 (stereo not given)	?	·
CN(C)CCN1C(=O)c2oc3ccccc3c(=O)c2C1c1cccc(Br)c1 (stereo not given)	-2.4%	>57
Cc1cc(=O)oc2cc(OCC(=O)N3CCCc4ccccc43)ccc12	-14.3%	>57
CC#C[C@@]1(O)CC[C@H]2[C@@H]3CCC4=CC(=O)CCC4=C3[C@H](c3ccc(N(C)C)cc3)C[C@]21C	?	>57

Six compounds already listed, ordered by molecular weight, lowest first.
structure	LT uptake inh	Prx2 Sm inh
Cn1c(=O)c2c(-c3ccccc3)n(-n3cnnc3)cc2n(C)c1=O	?	>57
Cc1cc(=O)oc2cc(OCC(=O)N3CCCc4ccccc43)ccc12	-14.3%	>57
CCOC(=O)c1c(C)n(OCc2ccccc2)c2ccc3nonc3c12	?	·
CCOC(=O)Cn1c(S(=O)(=O)Cc2ccccc2)nc2ccccc21	6.8%	>57
Cc1cc(Cl)c(S(=O)(=O)Nc2ccon2)cc1OCC(=O)NC1CCCCC1	-9.3%	>57
CC1(C(=O)NCc2cc(F)cc(C(F)(F)F)c2)C=CC2(CCCCC2)N1C(=O)c1ccccc1 (stereo not given)	?	·

(listing goes on)
structure	LT uptake inh	Prx2 Sm inh
CS/C(=N\S(=O)(=O)c1cccs1)Nc1ccc(N2CCOCC2)cc1	-12.7%	>57
O=C(NC1CCCCC1)NC1CCN(S(=O)(=O)Cc2ccccc2)CC1	-11.1%	>57
CC(c1ccco1)N(C(=O)c1ccc(Cl)s1)c1ccccn1 (stereo not given)	-4.8%	>57
O=C(NC1CCCCC1)C(c1ccc(Cl)cc1)N(C(=O)c1cnccn1)c1ccc2c(c1)OCO2 (stereo not given)	-7.3%	>57
COC(c1ccccc1Br)C(C)/C=C/CCO (stereo not given)	-17.3%[8 µM]	·
Nc1ccc(O)c([N+](=O)[O-])c1	?	·
Cc1cccc(-n2c(CN3C(=O)c4ccccc4C3=O)nc3ccccc3c2=O)n1	-20.0%	>57

Compound activity as filed in PubChem.
